SARS PLP yeast – inhibitors of SARS-CoV papain-like protease in yeast; S. cerevisiae expressing SARS-CoV PLpro, growth rescue; control for the full effect not named in the record; actives 0.19% (n = 330,000); Potency, µM (highest dose often 32.9 µM), inactives show top-dose activity, positive = growth rescue; further: 0% is about no effect; nearly all actives have a fitted effect of over 55% in size; growth read by luminescence after 48 h
NS1 inh – influenza NS1 inhibition; actives 0.4% (n = 270,000); Potency, µM (titrated, usually from 46.1 µM), for inactives: at the top dose activity, positive = more growth; AID 2326; S. cerevisiae slowed by influenza A NS1, growth recovery by OD600; further: actives are rising curves; nearly all actives have a fitted effect of over 50% in size
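In this qHTS, NS1 from influenza A is expressed in budding yeast, where it slows growth. Cells are switched from glucose to 2% galactose medium (pH 6.0, -URA), treated with compound, and growth recovery is read at OD600.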
Numbers without * were called inactive; ? = inconclusive; . = not tested or not shown; [ ] = remark or other dose. The call rests on the fitted dose curve; in most records, active means well fitted rising curve with a large enough effect; inconclusive means small, poorly fitted or top-dose-only effect; inactive means no such curve, though single readings can be large or run the other way. Potency means the concentration at half of the fitted maximal effect. Some of the compounds tested; the hit share may differ from the screen's.

Values in the order – SARS PLP yeast	NS1 inh
[1] O=C1NC(Cc2ccccc2)c2nc3ccccc3c(=O)n2-c2ccc(Cl)cc21 (stereo not drawn)
 : 0%	.
[2] C[C@H](NC(=O)c1nc[nH]c1C(=O)NC1CCNCC1)C(=O)OCc1ccccc1
 : -4%	.
[3] CSc1ccccc1NC(=O)CN1CCN(Cc2ccccc2)CC1
 : -2%	.
[4] CCCCC(CC)CNC(=O)Cn1c(=S)[nH]c2ncccc2c1=O (stereo not drawn)
 : 0%	.
[5] Cc1cccc(N/N=C(\C=N\N)C(=O)c2ccc(Br)cc2)c1
 : -11%	.
[6] O=C(O)c1ccc2c(c1)C(=O)N([C@@H](C(=O)O)C(c1ccccc1)c1ccccc1)C2=O
 : -2%	.
[7] O=C(Cc1ccccc1)c1c[nH]c(C(=O)NCCCn2ccnc2)c1
 : 2%	.
[8] CCOC(=O)c1c(C)[nH]c(C(=O)NCc2ccco2)c1C
 : -4%	.
[9] O=C(O)c1ccnc2c(O)cccc12
 : 3%	.
[10] Nc1ccccc1NC1=CC(=O)CC(c2ccccc2)C1 (stereo not drawn)
 : -1%	.
[11] NNC(=O)CCc1nc2ccccc2[nH]1
 : 0%	.
[12] O=C(Nc1cccc(Br)c1)c1ccc(OC2CSC2)cc1
 : 0%	.
[13] Cc1ccc(CCN2C(=O)c3ccc(C(=O)O)cc3C2=O)cc1
 : -2%	.
[14] Cc1ccc2oc(-c3cccc(NC(=O)Cn4cnc5c(=O)n(C)c(=O)n(C)c54)c3)nc2c1
 : 0%	.
[15] C[C@@](Cc1ccccc1)(C(=O)O)N1C(=O)c2ccc(C(=O)O)cc2C1=O
 : -15%	.
[16] COc1cc(C#N)c(NC(=S)N2CCOCC2)cc1OC
 : 1%	.
[17] CC(C)CC(=O)Nc1cccc(C(C)O)c1 (stereo not drawn)
 : 1%	.
[18] CCC(CC)C(=O)Nc1cc(Cl)ccc1C
 : -1%	.
[19] O=C(CCCn1c(=O)oc2ccccc21)NC1CCCCCC1
 : 3%	.
[20] COc1cccc(Cn2ncc3c4sc(Br)cc4n(C)c3c2=O)c1
 : 1%	.
[21] CCOC(=O)c1c(NC(=O)CSc2nnc(C)c(=O)[nH]2)sc(C)c1C
 : 0%	.
[22] Cc1csc(CNc2ncnc3ccc(-c4ccco4)cc23)c1
 : -5%	.
[23] CN=c1scc(-c2ccccc2Br)n1/N=C/c1ccc[nH]1
 : -19%	.
[24] COc1cc(/C=C2\C(=O)NN(c3ccccc3)C2=O)ccc1OCC(N)=O
 : 11%	.
[25] CCOC(=O)c1ccc(NC(=O)Nc2cc(C)cc(C)n2)cc1
 : -2%	.
[26] Cc1ccc(/C=N/N(C)C2=NS(=O)(=O)c3ccccc32)o1
 : 0%	.
[27] O=C(CN1CCC(N2CCCCC2)CC1)N1CCOCC1
 : 3%	.
[28] NS(=O)(=O)c1ccc(O)c(N2C(=O)c3cccc4c(C(=O)c5ccccc5)ccc(c34)C2=O)c1
 : 1%	.
[29] O=c1[nH]c(/C=C/c2ccc3c(c2)OCO3)c([N+](=O)[O-])c(=O)[nH]1
 : -1%	.
[30] COC(=O)c1cc2c(s1)c1cnn(Cc3ccccc3F)c(=O)c1n2C
 : 1%	.
[31] Cc1sc2nc(C(C)Sc3n[nH]c(N)n3)[nH]c(=O)c2c1C (stereo not drawn)
 : -5%	.
[32] CC(NC(=O)CCN1N=C(c2ccccc2)CCC1=O)c1ccc2c(c1)OCCO2 (stereo not drawn)
 : -2%	.
[33] COc1cc2c(cc1OC)CN(CC(=O)Nc1ccc(Cl)c(S(=O)(=O)N(C)C)c1)CC2
 : -1%	.
[34] O=C(c1cccc([N+](=O)[O-])c1)c1ccc2c(c1)C(=O)N(c1c[nH]c(=O)[nH]c1=O)C2=O
 : 0%	.
[35] CCOC(=O)N1CCC(N2C(=O)c3ccccc3C2Nc2ccc(S(=O)(=O)N3CCCCC3)cc2)CC1 (stereo not drawn)
 : 0%	.
[36] Cc1c(Br)c([N+](=O)[O-])nn1CC(=O)Nc1ccc(CC#N)cc1
 : 0%	.
[37] CC(=O)Nc1cccc(C2=CC(c3ccco3)n3ncnc3N2)c1 (stereo not drawn)
 : -2%	.
[38] OC(COc1ccc(-c2ccccc2)cc1)CN1CCOCC1 (stereo not drawn)
 : 0%	.
[39] COc1cc(/C=C2\SC(=Nc3ccc(F)cc3)N(c3ccc(F)cc3)C2=O)ccc1OCC(=O)O
 : 1%	.
[40] COc1ccc2c(c1)[C@H]1[C@H](CO2)[C@H](c2ccccc2)[C@]2(C)C(=O)N[C@@H](C)C(=O)N12
 : -5%	.

Among those listed so far, these contain a nitro group on carbon:
Values in the order – SARS PLP yeast	NS1 inh
[29] O=c1[nH]c(/C=C/c2ccc3c(c2)OCO3)c([N+](=O)[O-])c(=O)[nH]1
 : -1%	.
[34] O=C(c1cccc([N+](=O)[O-])c1)c1ccc2c(c1)C(=O)N(c1c[nH]c(=O)[nH]c1=O)C2=O
 : 0%	.
[36] Cc1c(Br)c([N+](=O)[O-])nn1CC(=O)Nc1ccc(CC#N)cc1
 : 0%	.

Additional compounds
Values in the order – SARS PLP yeast	NS1 inh
[41] Cc1ccc(CNC(=O)CC2Nc3c4ccccc4nc(=S)n3C2=O)cc1 (stereo not drawn)
 : 0%	.
[42] CC1CCCCC1NC1=NCCCS1 (stereo not drawn)
 : -2%	-1%
[43] NC(N)=Nc1cc2ccccc2c2ccccc12
 : -3%	-59%
[44] CC(C)COc1ncnc2c1sc1nc3c(cc12)COC(C)(C)C3
 : 1%	3%
[45] COc1ccc(-c2cccc(C3CC=CC4C3C(=O)N(Cc3ccccc3)C4c3cc(C)ccc3F)c2)cc1 (stereo not drawn)
 : -1%	-17%
[46] O=C1N=C2N(CCN3CCCCC3)c3ccccc3N2/C1=C\c1ccc([N+](=O)[O-])o1
 : 1%	0%
[47] Cc1cccc(N2C(=O)c3ccc(Br)cc3C2=O)n1
 : 14%	-1%
[48] COc1ccc(S(=O)(=O)NCc2ccccc2)cc1Br
 : -1%	-4%
[49] COc1ccc(-n2c(=S)[nH]c3sc4c(c3c2=O)CCN(C)C4)cc1
 : -1%	4%
[50] CC(=O)N1C=Cc2c(c(C)c3c([nH]c4ccccc43)c2C)C1
 : -9%	-44%
[51] COc1cc(/C=N/NC(=O)c2cc3c(ccc4ccccc43)o2)cc(OC)c1O
 : 3%	-8%
[52] C[C@@H]1C=CC(=O)O[C@@H]1c1ccc(C(F)(F)F)cc1
 : -14%	-49%
[53] O=C(O)c1cc(N/N=C/c2cccs2)ccc1Cl
 : 0%	7%
[54] O=C1C2=C(C(=O)c3ccccc31)C1O[C@](c3ccsc3)(Cc3ccccc31)O2
 : ?	9%
[55] O=C(CN1C(=O)NC(c2ccccc2)(c2ccccc2)C1=O)c1c[nH]c2ccccc12
 : -1%	?
[56] CCCCC1CCC(C(=O)NCC(c2ccco2)N2CCOCC2)CC1 (stereo not drawn)
 : -14%	-27%
[57] Cc1ccc(SC[C@H](Cc2ccccc2)N2CC[C@@H](NC(=O)OCc3ccccc3)CCC2=O)cc1
 : -4%	-6%
[58] CC(C)CCNC(=O)c1ccc(Cl)c(NC(=O)c2ccccc2F)c1
 : -3%	1%
[59] CCCCCCCCCC(=O)Nc1cccnc1
 : -3%	-7%
[60] C[n+]1nc(Nc2ccccc2)sc1-c1ccc(C(=O)O)cc1
 : 0%	-3%
[61] O=C(Nc1ccccc1Cl)Oc1ccc2ccccc2c1
 : 1%	?
[62] O=C(CC1C(=O)NCCN1Cc1ccccc1F)NC1CCCCCC1 (stereo not drawn)
 : 2%	8%
[63] Cc1ccc(C)c(N2CCN(CCCNC(=O)CCC(=O)N3CCOc4ccc(Cl)cc43)CC2)c1
 : -2%	-11%
[64] COc1ccc(CNCCc2cccc(F)c2)c2ccccc12
 : -5%	-18%
[65] O=C(CN1CCOCC1)N1CCN(c2ccc3ccccc3n2)CC1
 : -1%	1%
[66] N#Cc1ccc2c(c1)C[C@]1(CCCCN3C(=O)c4ccccc4C3=O)Oc3c(c(=O)oc4ccc(F)cc34)C2O1
 : -13%[6.58 µM]	14%
[67] COc1ccc(Cn2c(S(=O)(=O)CC(N)=O)nc3ccccc32)cc1[N+](=O)[O-]
 : 1%	-3%
[68] CC(C)CCNC(=O)c1ccc(Cl)c(N)c1
 : -1%	0%
[69] Cc1c(-c2ccc(O)cc2)nc2nc(-c3ccccc3)c(-c3ccccc3)nn12
 : -2%	-9%
[70] NC(=O)Cn1cc(C(=O)COc2ccccc2)c2ccccc21
 : 0%	3%
[71] COc1ccc(O)c(N)c1
 : 1%	0%
[72] Cc1cccc(NC(=S)NC(=O)C2CC2)c1
 : 25%	9%
[73] CC(=O)c1cc2c(cc1NC(=O)c1ccccc1C)OCO2
 : 1%	-1%
[74] O=C(N/N=C/c1ccco1)c1[nH]ncc1Br
 : -7%	-4%
[75] Cn1cc(C(=O)N/N=C/c2cc(Br)cs2)c2ccccc21
 : 2%	-4%
[76] Cc1ccc2c(-c3csc(N)n3)c[nH]c2c1
 : 1%	3%
[77] CO/N=C(/C(=O)N[C@@H]1C(=O)N2C(C(=O)O)=CCS[C@H]12)c1cnc(N)s1
 : 3%	0%
[78] CCC(C)C(=O)Nc1cccc(SC)c1 (stereo not drawn)
 : 1%	3%
[79] CCOc1ccccc1C(=O)Nc1cc(C(=O)NCC(C)C)ccc1Cl
 : -2%	-3%
[80] CCOc1ccc(NC(=O)c2ccc3c(=O)n(-c4ccc(OC)cc4OC)c(=S)[nH]c3c2)cc1
 : 10%	3%

In the list so far, these have an aryl thioether with sulfur outside any ring:
Values in the order – SARS PLP yeast	NS1 inh
[3] CSc1ccccc1NC(=O)CN1CCN(Cc2ccccc2)CC1
 : -2%	.
[21] CCOC(=O)c1c(NC(=O)CSc2nnc(C)c(=O)[nH]2)sc(C)c1C
 : 0%	.
[31] Cc1sc2nc(C(C)Sc3n[nH]c(N)n3)[nH]c(=O)c2c1C (stereo not drawn)
 : -5%	.
[57] Cc1ccc(SC[C@H](Cc2ccccc2)N2CC[C@@H](NC(=O)OCc3ccccc3)CCC2=O)cc1
 : -4%	-6%
[78] CCC(C)C(=O)Nc1cccc(SC)c1 (stereo not drawn)
 : 1%	3%

(cont.)
Values in the order – SARS PLP yeast	NS1 inh
[81] COc1ccc(CN(C)C(C)C(=O)Nc2ccc(S(=O)(=O)N3CCCC3)cc2)c(OC)c1OC (stereo not drawn)
 : 1%	5%
[82] Cc1ccc2nc(NC3=NC(CC(=O)O)C(=O)N3)nc(C)c2c1 (stereo not drawn)
 : -1%	-2%
[83] CC(C)C(C(=O)N1CCN(C(=O)OC(C)(C)C)CC1)n1cc(-c2cn([C@@H](C)C(=O)N3CCN(C(=O)OC(C)(C)C)CC3)nn2)nn1 (stereo partly drawn)
 : -1%	?
[84] CCCOc1ccc(C(=O)CCC(=O)OCC(=O)Nc2ccc(OCC)cc2)cc1
 : -1%	1%
[85] COCc1cc(C)nc(N/N=C/c2ccc(-c3cc(C(=O)O)ccc3Cl)o2)c1C#N
 : -1%	2%
[86] CC1(C)Cc2c(sc3nc(=S)[nH]c(N)c23)CO1
 : 5%	?
[87] CCOC(=O)c1nn(-c2ccc(Cl)cc2Cl)c(=N)c(C#N)c1C
 : 1%	7%
[88] COC(=O)c1ccc2c(C(C)(C)O)c(C(C)(C)O)[nH]c2c1
 : -8%	-7%
[89] CC(=O)C(Sc1nc(-c2ccc(F)cc2)nc2c1c(=O)n(C)c(=O)n2C)C(C)=O
 : 4%	0%
[90] COc1ccc(-c2cc(C(F)(F)F)n3ncc(C(=O)Nc4c(C)n(C)n(-c5ccccc5)c4=O)c3n2)cc1
 : 1%	2%
[91] CCCOC(=O)c1cc(NC(=O)/C=C/c2ccccc2)ccc1O
 : -1%	-6%
[92] Cc1cc2nc(-c3ccccn3)c(-c3ccccn3)nc2cc1C
 : -2%	-6%
[93] CCOC(=O)c1ccc(NC(=O)Nc2ncc(Cl)cc2Cl)cc1
 : 0%	-6%
[94] Cc1ccccc1N(Cc1cc(=O)[nH]c2ccccc12)C(=O)CCl
 : 9%	5%
[95] CN(C)C1=NC(=O)/C(=C/c2ccc(-c3ccc(S(N)(=O)=O)cc3)o2)S1
 : -12%	7%
[96] O=C(Nc1ccc(-n2ccc(C(F)(F)F)n2)cc1)Nc1cccc(Cl)c1
 : -5%	-49%
[97] CC1=CC(=C2C(=O)NC(=S)NC2=O)C=C(C(F)(F)F)N1CCc1ccccc1
 : 0%	-1%
[98] CN1C(=O)C(=Cc2ccc(N3CCOCC3)c([N+](=O)[O-])c2)C(=O)N(C)C1=O
 : 0%	9%
[99] COC(=O)CCC(=O)OC1(C)C(=O)C2=CN(CCCCO)C(c3ccc(OC)cc3)=CC2=C(Br)C1=O (stereo not drawn)
 : -5%	-6%
[100] CC(C)C(OC(=O)c1oc2ccccc2c1CSC1CCCCC1)C(=O)NC(N)=O (stereo not drawn)
 : -1%	3%
[101] CCN(CC)C(=O)CSc1nnc(COc2cccc(C)c2)n1C
 : -3%	2%
[102] O=C(c1ccc(Br)o1)N1CCc2ccccc21
 : -3%	-5%
